# Screening data as filed in PubChem.
# VDR inhibitor: inhibitors of human vitamin D receptor; P11473; VDR-SRC2-3 peptide fluorescence polarization, 2 h; Potency, µM, inactives show max response, negative = inhibition, hits mostly inhibitors; 400,000 compounds, 0.93% hits; active = well fitted inhibition curve with a large enough effect; inconclusive = small, poorly fitted or top-dose-only effect, or another doubt; inactive = no such curve, though single readings can be large or run the other way; also: series mostly up to about 120 µM
# Target sequence (P11473 whole entry, looked up): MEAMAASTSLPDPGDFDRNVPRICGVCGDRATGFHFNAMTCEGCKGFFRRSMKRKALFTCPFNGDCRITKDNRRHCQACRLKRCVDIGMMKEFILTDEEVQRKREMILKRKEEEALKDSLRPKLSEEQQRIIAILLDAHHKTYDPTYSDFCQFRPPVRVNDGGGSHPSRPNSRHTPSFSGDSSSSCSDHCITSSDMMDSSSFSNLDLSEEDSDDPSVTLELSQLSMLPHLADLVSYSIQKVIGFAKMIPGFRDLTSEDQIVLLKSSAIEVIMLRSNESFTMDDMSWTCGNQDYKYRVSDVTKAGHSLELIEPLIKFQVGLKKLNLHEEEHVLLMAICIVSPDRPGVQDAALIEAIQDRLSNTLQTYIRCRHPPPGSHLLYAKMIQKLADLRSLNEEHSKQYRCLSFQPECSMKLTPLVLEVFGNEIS
#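 Fluorescence polarization assay of small-molecule disruption of VDR binding to coregulator peptide SRC2-3. Compounds and controls pin-transferred, then read after 2 h incubation at ambient room temperature.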
# Active calls of the source: *; ? = inconclusive; & = joins results of further samples. % is scaled to controls: 0 for no effect and ±100 for the full control effect; potency is read from the fitted curve at half-maximal effect. Some of the compounds tested; the hit share may differ from the screen's.
# Preview (three entries):
SMILES,VDR inhibitor
O=C(CN1C(=O)CCSc2ccccc21)Nc1ccc2c(c1)OCO2,9%
O=C(Cn1ncc(Cl)c(Cl)c1=O)N1CCN(S(=O)(=O)c2ccc3ccccc3c2)CC1,-9%
CCNC(=O)COC(=O)c1ccc(-c2nc3ccccc3s2)s1,10%

# Main list (from the top)
SMILES,VDR inhibitor
O=C(CN1C(=O)CCSc2ccccc21)Nc1ccc2c(c1)OCO2,9%
O=C(Cn1ncc(Cl)c(Cl)c1=O)N1CCN(S(=O)(=O)c2ccc3ccccc3c2)CC1,-9%
CCNC(=O)COC(=O)c1ccc(-c2nc3ccccc3s2)s1,10%
COc1ccc(OC(=O)C2CC(=O)N(c3ccc(C)cc3)C2)cc1 (configuration not stated),3%
O=C(CNC(=O)c1ccc(Cl)cc1)OCN1C(=O)c2ccccc2C1=O,?
CCC[C@@H](CN1CCC[C@H]1CN1C(N)=NC[C@H]1C(C)C)N1C[C@@H](Cc2ccccc2)N(CCCC2CCCC2)C1=N,-8%
O=C(c1ccc(Cl)nc1)N1CCc2ccccc2C1,8%
CCCN(CC1CC1)C(=S)NC(=O)c1ccccc1Br,3%
Cc1ccc(NC(=O)c2c(-c3ccccc3)noc2C)nc1,-28%
Cc1ccc(S(=O)(=O)CC2CSc3nnc(C)c(=O)n32)cc1 (configuration not stated),25%
c1ccc2c(N3CCOCC3)c3c(nc2c1)CCC3,-4%
O=c1oc2ccccc2n1Cc1ccccc1F,8%
O=C(CSC1=Nc2ccccc2C2=NC(CC(=O)NCc3ccco3)C(=O)N12)NCC1CCCO1 (configuration not stated),3%
O=C(NCC(=O)N1CC=C(c2ccccc2)CC1)c1ccc(F)cc1,-1%
COc1ccc(NCC(=O)Nc2ccc(Cl)cc2C)c(OC)c1,-5%

# Three compounds picked at random from those above, as already listed:
SMILES,VDR inhibitor
COc1ccc(NCC(=O)Nc2ccc(Cl)cc2C)c(OC)c1,-5%
Cc1ccc(NC(=O)c2c(-c3ccccc3)noc2C)nc1,-28%
O=C(c1ccc(Cl)nc1)N1CCc2ccccc2C1,8%

# The listing continues:
SMILES,VDR inhibitor
COc1ccc(S(=O)(=O)N2CCN(C(=O)CN3C(=O)NC4(CCCC4)C3=O)CC2)cc1,2%
CCCCNCCCOc1ccc(C)cc1Br,-14%
CCOC(=O)C1CCCN(C(=O)c2cc(-c3ccncc3)nc3ccccc23)C1 (configuration not stated),-8%
COCCNC(=O)CN(C(=O)CCC(=O)Nc1ccccn1)c1ccc(F)cc1,-8%
O=C1CC(N2CCN(c3nc4ccccc4s3)CC2)C(=O)N1c1ccc(F)cc1 (configuration not stated),1%
COc1ccc2oc(N)nc2c1,-2%
N#CC1(Cc2ccc([N+](=O)[O-])cc2)c2ccccc2C=CN1C(=O)c1ccccc1 (configuration not stated),-8%
CCCCn1cnc2c1c(=O)n(C)c(=O)n2C,-5%
Cc1ccc(C(=O)NCC(=O)OCC(=O)c2c(N)n(C)c(=O)n(C)c2=O)s1,-12%
COc1ccc(CNCc2ccc3c(c2)OCO3)c(OC)c1OC,-13%
CS(=O)(=O)N1CCc2ccccc2C1,23%
COc1cc(/C=C2\SC(=O)NC2=O)ccc1OCC(=O)N1CCOCC1,-21%
CSc1ccccc1OCc1cc(C(=O)N2CCN(c3ncccn3)CC2)no1,-27%
CSCC[C@H](NC(=O)Cc1ccc(Cl)cc1)C(=O)N1CCC2(CC1)NCCc1[nH]cnc12,-12%
NS(=O)(=O)c1cccc(NC(=O)COC(=O)Cc2ccc(Cl)cc2)c1,6%

# Individual results from above.
# For VDR inhibitor, COc1cc(/C=C2\SC(=O)NC2=O)ccc1OCC(=O)N1CCOCC1 is entered as -21%
# For VDR inhibitor, O=C(CN1C(=O)CCSc2ccccc21)Nc1ccc2c(c1)OCO2 is entered as 9%
# For VDR inhibitor, c1ccc2c(N3CCOCC3)c3c(nc2c1)CCC3 is entered as -4%
# For VDR inhibitor, COc1ccc(S(=O)(=O)N2CCN(C(=O)CN3C(=O)NC4(CCCC4)C3=O)CC2)cc1 is entered as 2%
# For VDR inhibitor, CSc1ccccc1OCc1cc(C(=O)N2CCN(c3ncccn3)CC2)no1 is entered as -27%
# For VDR inhibitor, Cc1ccc(S(=O)(=O)CC2CSc3nnc(C)c(=O)n32)cc1 (configuration not stated) is entered as 25%
# For VDR inhibitor, COc1ccc(CNCc2ccc3c(c2)OCO3)c(OC)c1OC is entered as -13%

# Additional results follow.
SMILES,VDR inhibitor
COc1ccc(/C=C/C(=O)OCC(=O)c2c(N)n(C)c(=O)n(C)c2=O)cc1,-7%
CN(Cc1nccn1C)C(=O)C1CCC(=O)N(CCc2ccc(Cl)cc2)C1 (configuration not stated),-11%
COc1ccc(N2C(=O)C(=O)/C(=C(/O)c3ccc(C)cc3)C2c2cccnc2)cc1 (configuration not stated),-4%
CON(C)C(=O)c1ccccc1N(C)C(=O)OC(C)(C)C,-10%
CCCCn1nnnc1NCc1ccc(N2CCCC2)cc1,-5%
CCO[C@H]1OC(C(=O)N2CCN(Cc3ccc4c(c3)OCO4)CC2)=C[C@@H](c2ccccc2)[C@@H]1CCCO,-8%
CCCCCCCC/C=C\CCCCCCCC(=O)NCCCC(=O)O,-8%
COCCN(CC(=O)Nc1cccc(C)c1C)C(=O)c1oc2ccccc2c1C,5%
CCC(C)(C)NC(=O)C(c1ccc(OC)cc1)N(C(=O)CCC(=O)Nc1cc(C)on1)c1ccc(F)cc1 (configuration not stated),-14%
CCOC(=O)C1(Cc2cccc(OC)c2)CCCN(Cc2ccc(NC(C)=O)cc2)C1 (configuration not stated),-3%
CC(C)c1nnc(NC(=O)COc2ccccc2[N+](=O)[O-])s1,8%
CSc1cccc(NC(=O)C2CCCN(S(=O)(=O)c3cccs3)C2)c1 (configuration not stated),8%
Cc1cc(Nc2cccc(F)c2)nc(NCc2ccccc2)n1,0%
CCc1nnc(SCc2ccc(OC)c(Br)c2)n1N,-7%
O=C(OCC(=O)N1CCN(c2cccc(Cl)c2)CC1)c1ccco1,-3%
Cc1ccc(N2CCN(Cc3nnc(-c4ccccc4F)o3)CC2)c(C)c1,-1%
Cc1cccc(N(C)c2nc3ccc(C)cc3n3cnnc23)c1,-8%
O=C(Cc1ccccc1)Nc1cccc(S(=O)(=O)N2CCCCCC2)c1,-4%
COc1ccc(C)cc1NC(=O)CSc1nnc(-c2ccc(OC)c(OC)c2)n1N,1%
Cc1[nH]c2ccccc2c1/C=C/c1nc2ccccc2c(=O)n1CCO,?
O=C(COC(=O)c1cccs1)Nc1ccccc1C(F)(F)F,-14%
COc1ccc(/C=N/NC(=O)c2cccc(NC(=O)c3ccccc3Cl)c2)c(OC)c1,-11%
Cc1ccc(C(=O)C2=C(O)C(=O)N(c3ncccn3)C2c2ccc(F)cc2)o1 (configuration not stated),-1%
Cc1ccc(-n2c(=O)c3oc4ccccc4c3n(Cc3cccc(F)c3)c2=O)cc1C,-3%
COc1ccc(-c2c(NC(=O)CC(C)C)n(C)c3ccccc3c2=O)cc1OC,-9%
CC(C)Nc1nc(-c2cccnc2)nc(-c2ccccc2)c1C#N,-6%
C=CCn1c(=O)c(C(=O)Nc2ccc(C)cn2)c(O)c2ccccc21,-3%
CCC1=C(OC(=O)N(CC)CC)N2C(=O)OC(=NCCc3c[nH]c4ccccc34)[C@]2(Cc2ccccc2)[C@H]2C1=CC[C@H]1C(=O)N(CC(=O)OC)C(=O)[C@H]12,-19%
O=c1cc(CN2CCN(Cc3ccccc3)CC2)c2cc(Cl)ccc2o1,3%
O=[N+]([O-])c1cccc(S(=O)(=O)c2ccc(NCCOCCO)c([N+](=O)[O-])c2)c1,-9%
COc1ccc(N(CC(=O)Nc2ccccc2F)S(=O)(=O)c2ccc(C)c([N+](=O)[O-])c2)cc1,5%
Cc1ccc(NC(=O)CN2C(=O)N/C(=C\c3cccnc3)C2=O)cc1,-18%
COc1ccccc1CNC(=S)Nc1ccc2nc(N3CCN(C)CC3)cc(C)c2c1,7%
CNC(=O)c1c2c(nc3ccc(Br)cc13)CCCC2,-19%
O=C(c1ccccc1)N1CCn2c1nc1ccccc12,?
Cc1cc(C)c2c(n1)SCCN2C(=O)Nc1ccc(C(=O)Nc2cc(Cl)ccc2C)cc1,2%
CCCCNC(=O)Cn1cnc2sc(C)c(S(=O)(=O)N3CCN(c4ncccn4)CC3)c2c1=O,19%
Cc1ccc(C(=O)c2coc3c2C(=O)C(=O)c2ccccc2-3)cc1,7.1µM*
Cc1cc(C(=O)NC(=S)Nc2cccc(NC(=O)C(C)C)c2)ccc1[N+](=O)[O-],-7%
CCCCCCCNC(=O)C1(CC2CC(c3ccccc3)=NO2)CCNCC1 (configuration not stated),-13%
COCC(C)N=CC1=C(O)CC(C)(C)CC1=O (configuration not stated),-15%
COC(=O)C1CCN(C(=O)COC(=O)/C=C/c2ccc(O)c(OC)c2)CC1,8%
CCCN1CCN(C(=O)C2CCN(c3ncnc4c3nc3n4CCCCC3)CC2)CC1,-14%
Cc1ccc(C)c(-n2nnnc2SCC(=O)NNC(=O)c2ccco2)c1,15%
COc1ccc(N(C(=O)COc2ccc(C)cc2)S(=O)(=O)c2ccc(C)cc2)cc1,7%
CCc1nn(CCCC(=O)NCc2ccc(OC(C)C)cc2)c(=O)c2cc3occc3n12,15%&1%
COc1ccccc1CC(=O)Nc1ccc(S(=O)(=O)N2CCN(C)CC2)cc1,2%
COc1ccc2ncc(OC(C)=O)cc2c1,-15%
CC(=O)C1=C(c2cccc([N+](=O)[O-])c2)N(C(C)=O)n2c(nnc2-c2ccc(C)cc2)S1,0%
C=CCC[C@@H](Cc1ccc(F)cc1)C(=O)OC[C@@H](Cc1c[nH]c2ccccc12)NC(=O)[C@@H](CC=C)CC(=O)N[C@H](CO)Cc1ccccc1,-22%
O=S(=O)(c1ccccc1)N1CCC2(CC1)CN(c1ccccc1)C2,0%
CC(C)(COC(=O)C(c1ccccc1)c1ccccc1)CN1CCOCC1,4%
Cc1ccc(CN2CCN(Cc3c(C)nn(-c4ccc(F)cc4)c3C)CC2CCO)o1 (configuration not stated),9%
C=CCOC(=O)C1=C(C)OC(N)=C(C#N)C1c1ccc(OC)c(CSc2ccccn2)c1 (configuration not stated),-9%
CCCNC(=O)c1ccc(COc2ccc(CCC)cc2OC)o1,-6%
CC1(C)C2CCC1(C)C(OC(=O)c1ccccc1C(=O)O)C2 (configuration not stated),3%
CCCc1nnc(NC(=O)CCC(=O)N2CCN(S(=O)(=O)c3ccc(C)cc3)CC2)s1,3%
CC(Oc1ccccc1F)C(=O)NNC(=O)c1ccc(F)c(S(=O)(=O)N2CCOCC2)c1 (configuration not stated),-3%
COc1ccc(/C=C(/NC(=O)c2ccccc2)c2nc3ccc(Cl)cc3[nH]2)cc1OC,-8%
CCCC(=O)NC1CCc2cc(OC)c(OC)c(OC)c2-c2ccc(OC)c(=O)cc21 (configuration not stated),-5%

# Taken from the listing, two compounds:
SMILES,VDR inhibitor
C=CCC[C@@H](Cc1ccc(F)cc1)C(=O)OC[C@@H](Cc1c[nH]c2ccccc12)NC(=O)[C@@H](CC=C)CC(=O)N[C@H](CO)Cc1ccccc1,-22%
O=S(=O)(c1ccccc1)N1CCC2(CC1)CN(c1ccccc1)C2,0%

# Continuation.
SMILES,VDR inhibitor
CCn1cc(C(=O)OC)c(=O)c2ccc(C)nc21,-2%
COc1ccc(CNC(=O)c2cc(C3CC3)nc3c2cnn3C(C)C)cc1,0%
O=C(O)c1ccc(CNCc2cccc(Oc3ccccc3)c2)cc1,-19%
Cc1cccc(NC(=O)c2ccc(-c3ccccc3[N+](=O)[O-])o2)c1,-4%
O/N=C1/CC/C(=N\O)c2nn(-c3ccccc3)nc21,-16%
COc1ccc(CC(=O)N(C)CC(=O)Nc2ccccc2SC)cc1,?
CN(C)/C=N/C1=C(C#N)C(c2ccc(Br)cc2)c2ccc3ccccc3c2O1 (configuration not stated),-6%
CCOc1cc(C)c(S(=O)(=O)Nc2ccc(Cl)cn2)cc1C,-12%
COc1ccc(N2C(=O)CC(N3CCN(S(=O)(=O)c4c(F)cccc4F)CC3)C2=O)cc1OC (configuration not stated),-14%
CN1CCc2c(C#N)c(N3CCCCC3)nc(NCc3ccccc3)c2C1,?
CC1CC(=O)N(c2ccc(NCCc3ccc(O)cc3)c([N+](=O)[O-])c2)C1=O (configuration not stated),8%
O=C(Cc1ccccc1)N[C@@H](Cc1ccccc1)c1nc2ccccc2[nH]1,1%
CCOC(=O)C1CCCN(Cc2ccccc2C)C1 (configuration not stated),-5%
CCOC(=O)c1cccc(NC(=O)C2CCCN(S(=O)(=O)c3cc(Br)cc4c3N(C(=O)CC)CC4)C2)c1 (configuration not stated),2%
O=C(CN(C1CCCCC1)S(=O)(=O)c1ccccc1)NCc1cccnc1,-10%
COc1ccccc1OCC(=O)N(Cc1cccs1)C1CCS(=O)(=O)C1 (configuration not stated),-1%
Oc1cc(-c2ccc(N3CCCCC3)nc2)cc2cccnc12,6%
Cc1cc(C)c(S(=O)(=O)N2CCCC(C(=O)NC3CCCC3)C2)c(C)c1 (configuration not stated),-6%
COCCN1CC(C(=O)NCc2ncccc2C)CCC1=O (configuration not stated),-4%
COc1cccc(/C=C(\C#N)c2nc3ccc(C)cc3[nH]2)c1,-4%
Cc1cc(C)c(C(=O)Nc2ccccc2)c(SCC(=O)Nc2ccc(Br)cc2C)n1,-7%
CCCC(CCC)C(=O)Nc1ccc2c(c1)N(C(=O)CCN1CCN(C)CC1)c1ccccc1CC2,-3%
Cc1ccc(OCc2cc(C(=O)NC3CCOC3)no2)cc1C (configuration not stated),-6%
Cc1cccc(CCNC(=O)c2cc3c(=O)[nH]c4ccc(C)cc4c3s2)c1,-14%
CCN(CC#CCC1(O)c2ccccc2-c2ccccc21)CCO,6%
CCSc1nnc(NC(=O)[C@@H](NC(=O)c2ccccc2F)C(C)C)s1,-7%
O=C(O)c1ccccc1C(=O)OCCc1cc2ccccc2c(=O)o1,-24%
CCOc1c(Cl)cc(CNC(C)(C)CC(C)(C)C)cc1OC,-6%
c1ccc(CN=C(NCc2ccccc2)NCc2ccccc2)cc1,6%
Cc1nc2nc(CNC(=O)c3cccc(F)c3)nn2c(C)c1CCC(=O)Nc1cccc(Cl)c1,11%
CC1CCCC(NC(=O)COC(=O)c2cc(=O)[nH]c3ccccc23)C1C (configuration not stated),0%
